Biofilm kill mix – mixtures killing C. albicans biofilm; inhibition, % at 7.6 µM; C. albicans biofilm persisters + clotrimazole, fluorescence viability; primary screen in compound mixtures of four per well; 0.02% of 120,000 active;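 active = inhibition above 30.3% in the primary screen of four-compound pools, then above 30% when the compound was retested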;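 also: compounds exposed to preformed 24 h biofilms for 48 h; the number belongs to the whole pool; some results filed as inactive read as strong as hits; inactives centre near 12; 0% = biofilm with clotrimazole alone and 100% = kill control; retested singly at about 60 µM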
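System: C. albicans CAF4-2 wild-type biofilms; Medium: RPMI/MOPS medium, pH 7.0; Reagent: Clotrimazole, 50 µg/mL; Times: biofilm formation 24 h, compound exposure 48 h, 37 °C; Detection: 2-h Alamar Blue fluorescence, 535/590 nm excitation/emission; Evaluation: percent inhibition of biofilm viability.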
Active calls of the source: *. A portion of the library, so the mix of outcomes need not match the whole.

SMILES | Biofilm kill mix
Cc1cccc(C(=O)NCc2ccc(S(N)(=O)=O)cc2)c1[N+](=O)[O-] | 6
COc1ccc(/C=C/C(=O)Nc2cc(C)on2)cc1 | 15
O=C(O)CCCNC(=O)/C(=C\c1ccc(Cl)cc1)NC(=O)c1ccccc1Br | 16
CCOC(=O)c1cnn(CCOC(=O)c2ccccc2)c1NC(=O)c1ccccc1 | 6
O=C(CSCCOc1ccccc1)NCc1ccncc1 | 16
CCOC(=O)N1CCN(C(=O)CSCc2ccccc2)CC1 | 7
O=C(CSc1ncn(-c2ccccc2)n1)Nc1nc(-c2ccccc2)cs1 | 6
O=C(NCCN1CCOCC1)c1ccc(=O)n(Cc2ccc(Cl)cc2)c1 | -2
Cc1ccc(NC(=O)CSc2n[nH]c(C)c2[N+](=O)[O-])cc1 | 13
CCOc1cc(NC(=O)C2CCCCC2)c(OCC)cc1NC(=O)c1ccccn1 | 17
Fc1ccc(C2N(c3ccccc3)C(=S)N3CCCN23)cc1 (stereo not drawn) | 17
CCOC(=O)N1CCN(CC(=O)N2CCC(C(N)=O)CC2)CC1 | 2
Cc1ccc(NC(=O)c2ccccc2-c2ccccc2C(=O)O)cc1C | 19
CCOC(=O)c1sc(-c2ccccc2)cc1NC(=O)Nc1ccc([N+](=O)[O-])cc1 | 11
Cn1c(CN2CCN(CCO)CC2)c(C#N)c2ccccc21 | 20
COC(=O)c1ccc(NC(=O)COC(=O)C2CC(=O)N(Cc3ccccc3)C2)cc1 (stereo not drawn) | 9
Cc1c(NC(=O)CSc2ccccc2Cl)c(=O)n(-c2ccccc2)n1C | 1
COc1ccc(C(NC(=O)C(C)C)c2c(O)ccc3ccccc23)cc1OC (stereo not drawn) | 40
CC(CNC(=O)CC(C)(C)C)NC(=O)CC(C)(C)C (stereo not drawn) | 8
Cc1ccc(C)c(S(=O)(=O)N(C(=O)c2ccncc2)c2ccc(OC(=O)c3ccncc3)cc2)c1 | -1
CCCCOc1ccc(CSC2=NCCN2)cc1[N+](=O)[O-] | 4
CCCc1nc2oc3c(NCCCN(C)C)ncnc3c2c2c1CCCC2 | 12
CCCCC(=O)Nc1cccc(NC(=O)c2cccc(Br)c2)c1 | 20
CC(=O)Nc1ccc(S(=O)(=O)Oc2ccc(C(=S)N3CCC(O)CC3)cc2)cc1 | 7
COc1ccc(NC(=O)Cn2cnc3c(cnn3C(C)(C)C)c2=O)cc1OC | -2
COc1ccc(C2=NN(C(=O)c3cccs3)C(O)(C(F)(F)F)C2)cc1 (stereo not drawn) | 12
Cc1ccc(C)n1-c1ccccc1N | 16
CCC(NC(=O)Nc1cc(C)on1)(C(F)(F)F)C(F)(F)F | 19
C[C@@H](C(=O)OCC(=O)NCCc1ccc(S(N)(=O)=O)cc1)N1C(=O)C2CCCCC2C1=O (stereo partly drawn) | 0
COC(=O)c1ccc(NC(=O)c2ccc(OC(C)=O)c(OC)c2)cc1 | 11
Cc1ccc(NC(=S)Nc2ccc3[nH]c(=O)[nH]c3c2)cc1C | 15
O=C1Nc2c(c(=O)[nH]c(=O)n2Cc2ccccc2)C1(NS(=O)(=O)c1ccccc1)C(F)(F)F (stereo not drawn) | 11
CCOc1ncccc1C(=O)Nc1cccc(Cl)c1Cl | 12
O=C(N/N=C/c1ccc(N2CCCCC2)o1)C(O)(c1ccccc1)c1ccccc1 | 14
NS(=O)(=O)c1cccc(NC(=O)CSc2ncc(C(F)(F)F)cc2Cl)c1 | 15
COc1ccc(-c2nn(-c3ccccc3)cc2/C=C(\CC(=O)O)c2nc3ccccc3s2)cc1OC | 9
CCc1cc2c(COC(=O)c3c(C)noc3C)cc(=O)oc2cc1O | 8
Cn1c(SCCOc2ccc(F)cc2)nnc1-c1ccncc1 | 20
CCOC(=O)c1sc(N)c(C(=O)OC)c1C | 16
Cc1cc(Oc2ccc(OCC(N)=O)nn2)nc(Cl)n1 | 3
CCCc1ccc(C(=O)/C=C/N(C)C)cc1 | 10
CC(=O)c1cccc(NC(=O)Cn2nc(-c3ccccc3Cl)ccc2=O)c1 | 13
OC1(c2ccccc2)CCN(Cc2ccccc2)CC1 | 9
CCn1cc(C2CC(=O)NC2=O)c2ccccc21 (stereo not drawn) | 4
COc1ccc(-c2nn(-c3ccccc3)cc2/C=C(/C#N)C(N)=O)cc1[N+](=O)[O-] | 25
Cc1ccccc1CC1(CO)CCCN(Cc2ccc(C#CC(C)(C)O)cc2)C1 (stereo not drawn) | 15
COCc1cc(C)nc(OCC(=O)N/N=C/c2ccc(C)o2)c1C#N | 25
CCCN(CCC)Cc1cc(=O)oc2cc3c(cc12)CCC3 | 16
COC(=O)c1c(NC(=O)c2nc3ccccc3s2)sc2c1CC(C)(C)NC2(C)C | 18
CCCCNC(=O)C(=O)N/N=C/c1ccc(OCC(=O)Nc2cccc(OC)c2)c(OC)c1 | 11

Next part
SMILES | Biofilm kill mix
Cc1c(NC(=O)COC(=O)c2ccccc2Cl)c(=O)n(-c2ccccc2)n1C | -6
O=c1[nH]c(SCc2ccccc2[N+](=O)[O-])nc2nc[nH]c12 | 9
C/C(=N/NC(=O)Cc1ccccc1)c1ccc(C)s1 | 6
CC1SC(=Nc2ccccc2)N(S(=O)(=O)c2ccccc2)C1=O (stereo not drawn) | 18
O=C(c1ccccc1)c1ccc(OCCO)cc1 | 5
C(=N\Nc1nc2ccccc2[nH]1)/C1CCCCC1 | 16
COc1ccc2c(c1)c(C(=O)CN1CCN(c3ccccc3)CC1)c(C)n2C | 12
CCOC(=O)c1cc(C#N)c(N2CCN(c3ccc(OC)cc3)CC2)[nH]c1=O | 11
CC(C)=CCN1CCN(Cc2cc(CC(C)C)n[nH]2)CC1CCO (stereo not drawn) | 10
CCn1cc(C2=NC(CC(C)C)CO2)c2ccccc21 (stereo not drawn) | 28

Taken from above:
`O=c1[nH]c(SCc2ccccc2[N+](=O)[O-])nc2nc[nH]c12` in Biofilm kill mix = 9
`COc1ccc2c(c1)c(C(=O)CN1CCN(c3ccccc3)CC1)c(C)n2C` in Biofilm kill mix = 12
`C/C(=N/NC(=O)Cc1ccccc1)c1ccc(C)s1` in Biofilm kill mix = 6
`CCOC(=O)c1cc(C#N)c(N2CCN(c3ccc(OC)cc3)CC2)[nH]c1=O` in Biofilm kill mix = 11

(continued)
SMILES | Biofilm kill mix
COc1cc(OC)cc(C(=O)NC(=S)Nc2ccc(N3CCCC3)cc2)c1 | 7
C#CCOCCOCCOCCNc1nc(N2CCN(C(=O)[C@H](Cc3cc4ccccc4[nH]3)n3cc(C(N)CC(C)C)nn3)CC2)nc(N2CCN(C(=O)[C@H](CCC(=O)O)n3cc(C(N)[C@H](C)CC)nn3)CC2)n1 (stereo partly drawn) | 12
Cc1nc2ccccn2c1C(=O)N=Nc1c(O)n(CCC(C)C)c2ccccc12 | 20
CN(C)C(=S)Nc1ccc(N2CCOCC2)cc1 | 12
CCOc1cc(N2CCOCC2)c(OCC)cc1NC(=O)c1ccccc1 | 23
COc1cc(/C=N/NC(=O)CCC(=O)NCc2ccccc2)cc(OC)c1OC | -9
C=CCn1c(-c2cccc([N+](=O)[O-])c2)n[nH]c1=S | 6
COc1ccc(N2C(=O)[C@@H]3[C@H](C2=O)[C@H](C(=O)c2ccc(OC(C)=O)cc2)N2N=CC=C[C@@H]32)cc1 | 11
CC(=O)c1csc(-c2ccccc2)n1 | 7
Cc1ccccc1C1=Nn2c(nnc2-c2ccco2)SC1 | 3
COc1ccc(S(=O)(=O)N2CCCCC2C(=O)O)cc1 (stereo not drawn) | 5
CCN(CC)S(=O)(=O)c1cc(NC(=O)C(CC(C)C)NC(N)=O)ccc1C (stereo not drawn) | 24
O=C(c1ccccc1)C(Nc1ccccn1)c1ccccc1 (stereo not drawn) | -2
c1ccc(CN2CCCC3(CCCN(Cc4nc(CC5CC5)no4)C3)C2)cc1 (stereo not drawn) | 16
Cc1oc2c(CN3CCOCC3)c(O)ccc2c(=O)c1-c1ccc(Cl)cc1 | 10
CC(C)(C)NC(=O)CN(C(=O)C1CSC(=O)C1)c1ccccc1F (stereo not drawn) | 5
COc1ccc(-c2cc3nc4ccccc4n3c(N)c2C#N)cc1 | 16
Cc1ccc(NC(=O)/C(=C/c2cccs2)NC(=O)c2ccco2)c(C)c1 | 22
CCOC(=O)C1=C(C)NC(C)=C(C(=O)OCC)C1c1ccc([N+](=O)[O-])s1 | 9
O=C(N/N=C/c1ccco1)c1ccc(OCc2ccccc2)cc1 | 25
O=C(/C=C/c1ccc(Cl)cc1)NC(=S)Nc1ccc(CN2CCOCC2)cc1 | 1
CCc1nc2ccccc2c(C(=O)NCc2ccccc2)c1C | 20
S=c1[nH]nc(CCCc2n[nH]c(=S)o2)o1 | 6
O=C(NCCc1ccc(F)cc1)c1cc(-c2ccncc2)nc2ccccc12 | 26
Cc1ccc(NC(=O)c2ccccc2OCC(=O)Nc2cccc(Cl)c2C)nc1 | -4
O=C1CN(C(=S)NC(=O)c2ccc(-c3ccccc3)cc2)CCN1 | 4
O=C(NCC1CCCO1)c1ccc(Oc2ccc([N+](=O)[O-])cc2)cc1 (stereo not drawn) | 13
CN(C)C(=O)c1cc(C(=O)c2ccc(C(F)(F)F)cc2F)c[nH]1 | 17
C=CCn1c(C2CC2)n[nH]c1=S | -1
COc1ccc(N(C(=O)c2cnccn2)C(C(=O)NC2CCCCC2)c2ccc(O)cc2)cc1 (stereo not drawn) | 27

Sorted by SMILES length (ascending): some entries from above
SMILES | Biofilm kill mix
c1ccc(CN2CCCC3(CCCN(Cc4nc(CC5CC5)no4)C3)C2)cc1 (stereo not drawn) | 16
CCOC(=O)c1cnn(CCOC(=O)c2ccccc2)c1NC(=O)c1ccccc1 | 6
CCN(CC)S(=O)(=O)c1cc(NC(=O)C(CC(C)C)NC(N)=O)ccc1C (stereo not drawn) | 24

Going on with the list:
SMILES | Biofilm kill mix
COc1ccc(CCNC(=O)c2ccc(-c3ccc([N+](=O)[O-])cc3)o2)cc1OC | 11
COc1cccc(C(=O)N2N=C(c3ccccc3)CC2(O)C(F)(F)F)c1 (stereo not drawn) | 12
CCC(=O)NC(=S)Nc1ccc(NC(=O)c2ccc([N+](=O)[O-])cc2)cc1 | 10
Fc1cccc(Cc2noc(CN3CCCCC3c3ccccn3)n2)c1 (stereo not drawn) | 6
CCOC(=O)c1ccc(-c2ccc(/C=N/NC(=O)CN(c3ccccc3Cl)S(C)(=O)=O)o2)cc1 | 19
Cc1csc2cc(-c3cccc([N+](=O)[O-])c3)c(-c3cccc([N+](=O)[O-])c3)c[n+]12 | 17
CCOC(=O)N1CCN(c2ccc([N+](=O)[O-])cc2)CC1 | 18
COc1cccc(-n2c(CCn3nc(C)c([N+](=O)[O-])c3C)n[nH]c2=S)c1 | 3
C/C(=N\NC(=O)CNc1cccc(C(F)(F)F)c1)c1ccc(Br)cc1 | 5
Cc1ccc(C(=O)N/C(=C\c2ccccc2)C(=O)NCC2CCCO2)cc1 (stereo not drawn) | 15
Cc1ccc(C2=NOC3(CC(=O)N(c4ccc(C)cc4)C3=O)C2)cc1 (stereo not drawn) | 8
Cc1ccc(NC(=S)N/N=C2\CC3CC=CC23)c(C)c1 (stereo not drawn) | 17
O=C(Cn1cncn1)N/N=C/c1ccncc1 | 25
O=[N+]([O-])c1cccnc1Oc1ccccc1F | 13
COC(=O)c1ccccc1NC(=O)CNC(=O)c1ccc(OC)c(OC)c1 | 20
COCCOC(=O)/C(=C/c1ccc(OC(=O)c2ccccc2)cc1)C(C)=O | 22
CN(C)CCCN(CCCNC(=O)/C=N/O)Cc1ccccc1 | 12
O=C(O)c1cccc(NC2=C(n3nnc4ccccc43)C(=O)c3ccccc3C2=O)c1 | 10
O=C(NCCCn1ccnc1)c1ccc(Cl)cc1 | 9
Cc1cc(C)c(NC(=S)NC(CO)(CO)CO)c(C)c1 | 24
CCOc1ccc2nc(NC(=O)C3CCCN(S(=O)(=O)c4c(C)noc4C)C3)sc2c1 (stereo not drawn) | -5
Nc1ccc(N2CCN(c3cccc(Cl)c3)CC2)cc1 | 18
CC(OC(=O)c1ccc(-c2ccc([N+](=O)[O-])cc2)o1)C(=O)NC(N)=O (stereo not drawn) | 21
CCC(CC)c1nn2c(N)c(/C=C3\C(C)=Nc4ccccc43)c(=O)nc2s1 | 18
CCCc1nnc(SCC(=O)N2C(C)CCCC2C)n1CC (stereo not drawn) | 12
Nc1ccccc1Sc1ccc(C(F)(F)F)cc1[N+](=O)[O-] | 23
COc1ccc(NC(C)=O)cc1NC(=O)c1ccc(Cl)cc1 | 6
Cc1ccc(S(=O)(=O)N2CCC(C(=O)C3C(=O)CCCC3=O)CC2)cc1 | 6
COc1ccc(CCNC(=O)CSc2ccccn2)cc1OC | -15
Cc1ccc(SCC(=O)Nc2cc([N+](=O)[O-])ccc2O)cc1 | -3

Among those listed so far, these have an NH in an aromatic ring:
SMILES | Biofilm kill mix
Cc1ccc(NC(=O)CSc2n[nH]c(C)c2[N+](=O)[O-])cc1 | 13
Cc1ccc(NC(=S)Nc2ccc3[nH]c(=O)[nH]c3c2)cc1C | 15
O=C1Nc2c(c(=O)[nH]c(=O)n2Cc2ccccc2)C1(NS(=O)(=O)c1ccccc1)C(F)(F)F (stereo not drawn) | 11
O=c1[nH]c(SCc2ccccc2[N+](=O)[O-])nc2nc[nH]c12 | 9
C(=N\Nc1nc2ccccc2[nH]1)/C1CCCCC1 | 16
CCOC(=O)c1cc(C#N)c(N2CCN(c3ccc(OC)cc3)CC2)[nH]c1=O | 11
CC(C)=CCN1CCN(Cc2cc(CC(C)C)n[nH]2)CC1CCO (stereo not drawn) | 10
C#CCOCCOCCOCCNc1nc(N2CCN(C(=O)[C@H](Cc3cc4ccccc4[nH]3)n3cc(C(N)CC(C)C)nn3)CC2)nc(N2CCN(C(=O)[C@H](CCC(=O)O)n3cc(C(N)[C@H](C)CC)nn3)CC2)n1 (stereo partly drawn) | 12
C=CCn1c(-c2cccc([N+](=O)[O-])c2)n[nH]c1=S | 6
S=c1[nH]nc(CCCc2n[nH]c(=S)o2)o1 | 6
CN(C)C(=O)c1cc(C(=O)c2ccc(C(F)(F)F)cc2F)c[nH]1 | 17
C=CCn1c(C2CC2)n[nH]c1=S | -1
COc1cccc(-n2c(CCn3nc(C)c([N+](=O)[O-])c3C)n[nH]c2=S)c1 | 3

Screening results from PubChem BioAssay.
